Screening results: PubChem, National Center for Advancing Translational Sciences (NCATS)
SARS PLpro yeast: SARS-CoV PLP inhibition in yeast | S. cerevisiae expressing SARS-CoV PLpro, growth rescue; control for the full effect not named in the record | Potency, µM (top dose mostly 32.9 µM), for the others: top-dose activity, positive = growth rescue | actives 0.19% (n = 330,000); active means well fitted rising curve with a large enough effect; inconclusive means small, poorly fitted or top-dose-only effect; inactive means no such curve, though single readings can be large or run the other way; also: 0% is about no effect; nearly all actives have a fitted effect of over 55% in size; growth read by luminescence after 48 h
MARV entry inh: blocks Marburg virus binding to or entry into cells; AID 540276; Marburg virus pseudotyped entry inhibition, cell reporter; control for the full effect not named in the record; about a third of the inactives were read at about 46 µM; actives 1.8% (n = 300,000); Potency, µM (series often up to 37.8 µM), for the others: at the highest dose activity change, negative = inhibition, most hits filed as inhibitors; active = well fitted inhibition curve with a large enough effect; inconclusive = small, poorly fitted or top-dose-only effect, or effect the other way; inactive = flat fitted curve, though single readings scatter; tested in HEK293 cells; about a fifth of its hits are not listed in these tables; also: % is scaled to controls: 0 for no effect and ±100 for the full control effect; luciferase read-out
StopGo reporter: lowers the luciferase signal of an FMDV 2A StopGo reporter | human cells with a luciferase reporter of 2A StopGo recoding; control for the full effect not named in the record | actives 1.2% (n = 410,000) | Potency, µM (titrated, usually from 57.9 µM), for inactives: top-dose signal change, negative = less light | AID 1159524; active = well fitted falling curve with a large enough effect; inconclusive = small, poorly fitted or top-dose-only effect; inactive = no such curve, though single readings can be large or run the other way; tested in HEK293T cells; also: % is scaled to controls: 0 for no effect and ±100 for the full control effect; nearly all actives have a fitted effect of over 45% in size; luciferase light after 4 h
Lassa entry inh: Lassa virus entry inhibition. Lassa virus pseudotype entry inhibition, cell reporter; control for the full effect not named in the record. Potency, µM (highest dose often 37.9 µM), for inactives: at the top dose activity change, negative = inhibition, actives largely listed as inhibitors. actives 1.2% (n = 300,000). AID 540256; active means well fitted inhibition curve with a large enough effect; inconclusive means small, poorly fitted or top-dose-only effect, or effect the other way; inactive means flat fitted curve, though single readings scatter; tested in HEK293 cells; also: % is scaled to controls: 0 for no effect and ±100 for the full control effect; nearly all actives have a fitted effect of over 50% in size; luciferase read-out
Cruzain inh Det: blocks cruzain activity in presence of Triton detergent; purified cruzain, Z-FR-AMC fluorescence, 0.01% Triton; Potency, µM, without a hit: max response, negative = inhibition, usual class: inhibitors; actives 0.43% (n = 200,000); AID 1478;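 also: plate controls were neutral wells for no effect and buffer without enzyme for full effect; nearly all actives have a fitted effect of over 40% in size; top concentration of the series not given in the record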
Target sequence (P25779 123-467 limits assumed): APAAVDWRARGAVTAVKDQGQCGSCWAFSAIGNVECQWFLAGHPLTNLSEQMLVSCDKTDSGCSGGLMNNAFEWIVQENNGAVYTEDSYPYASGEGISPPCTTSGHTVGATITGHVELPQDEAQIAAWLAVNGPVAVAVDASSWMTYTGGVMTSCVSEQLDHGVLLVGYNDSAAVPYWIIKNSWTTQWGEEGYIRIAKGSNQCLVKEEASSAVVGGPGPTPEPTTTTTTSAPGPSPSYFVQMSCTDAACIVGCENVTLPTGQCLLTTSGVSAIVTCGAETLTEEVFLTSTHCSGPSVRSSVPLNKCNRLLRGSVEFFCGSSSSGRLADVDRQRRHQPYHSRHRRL
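Enzyme 1.5 nM, Z-FR-AMC 2 uM, NaOAc 100 mM pH 5.5, DTT 5 mM, Triton X-100 0.01%; 15 min RT compound preincubation; kinetic ex360/em450, 60 s delta.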
NS1 function inh: inhibitors of influenza NS1 protein function. S. cerevisiae slowed by influenza A NS1, growth recovery by OD600. Potency, µM (highest dose often 46.1 µM), for inactives: at the top dose activity, positive = more growth. actives 0.4% (n = 270,000); active means well fitted rising curve with a large enough effect; inconclusive means small, poorly fitted or top-dose-only effect; inactive means no such curve, though single readings can be large or run the other way; also: nearly all actives have a fitted effect of over 50% in size
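S. cerevisiae expressing influenza A NS1, grown in glucose, washed, then diluted 1:100 into pH 6.0 -URA galactose medium with 23 nl compound. Growth recovery read as OD600; NS1-free strain serves as control.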
RE007 growth inh: less growth of the S. pombe RE007 Vpr strain; S. pombe RE007 Vpr strain, BacTiter-Glo ATP luminescence, 24 h; control for the full effect not named in the record; Potency, µM (highest dose often 92.2 µM), without a hit: at the highest dose activity change, negative = less growth; actives 0.21% (n = 360,000); active = well fitted falling curve with a large enough effect; inconclusive = small, poorly fitted or top-dose-only effect; inactive = no such curve, though single readings can be large or run the other way;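 also: % is scaled to controls: 0 for no effect and ±100 for the full control effect; nearly all actives have a fitted effect of over 50% in size; the assay follows cell death caused by Vpr and the record does not say whether a fall means rescue or toxicity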
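Fission yeast RE007 carrying one integrated HIV-1 vpr copy, seeded at OD 0.01 in PMG+AL medium with 23 nL pinned compound. Grown 24 h at 30 degrees; viability read by BacTiter-Glo luminescence after 5 min.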
Cruzain noTriton: inhibitors of Trypanosoma cruzi cruzain without detergent; P25779; Potency, µM, without a hit: max response, negative = inhibition, actives largely listed as inhibitors; actives 2.3% (n = 200,000); purified cruzain, Z-FR-AMC fluorescence, no detergent; AID 1476;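 also: plate controls were enzyme without inhibitor for no effect and buffer without enzyme for full effect; nearly all actives have a fitted effect of over 40% in size; top concentration of the series not given in the record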
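Purified cruzain at 1.5 nM, pre-incubated 15 min with compound at room temperature in 100 mM sodium acetate pH 5.5, 5 mM DTT, 0.00005% Triton X-100. Reaction started with 2 uM Z-FR-AMC; AMC fluorescence increase over 60 s gives rate.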
Numbers without * were called inactive; ? = inconclusive; . = not tested or not shown; & = joins results of further samples; [ ] = remark or other dose. Unless noted, calls follow the shape of the dose curve; as a rule, active = well fitted curve in the direction sought with a large enough effect; inconclusive = small, poorly fitted or top-dose-only effect, or another doubt; inactive = no such curve, though single readings can be large; an effect the other way counts as inactive or inconclusive. Potency is read from the fitted curve at half-maximal effect.

canonical_smiles	Cruzain inh Det	SARS PLpro yeast	RE007 growth inh	MARV entry inh	StopGo reporter	NS1 function inh	Lassa entry inh	Cruzain noTriton
COCCn1c(C)cc(C(=O)CSc2nc3ccccc3s2)c1C	-4.4%	9%	2%	?	16µM*	41%	?	?
CCOC(=O)c1cc(-c2cc(OC)c(OC)c(OC)c2)nc2c1c(=O)[nH]c(=O)n2Cc1ccccc1	.	-1%	-8%	-4%[46.1 µM]	-6%	.	-24%[46.1 µM]	.
CCc1c(Cl)nc(N)nc1Nc1ccccc1C	.	.	-6%	?	-29%	.	-25%	.
Fc1ccc2[nH]c3c(N4CCSCC4)ncnc3c2c1	-6.8%	-11%	8%	10µM*	3.2µM*	-15%	?	-8%
O=C(NC1CC2CCC(C1)N2Cc1nnnn1Cc1ccco1)NC12CC3CC(CC(C3)C1)C2 (configuration not stated)	5.8%	-1%	13%	?	-31%	-13%	-28%	-10%
NNC(=O)COc1ncn(-c2ccccc2)n1	5.7%	.	35%	6%	17%	16%	2%	-1%
COc1ccc(NC(=O)COC(=O)[C@@H]2CCCN2C(=O)c2cccs2)c(OC)c1	5.6%	5%	4%	4%	-2%	-2%	3%	-1%
Cc1ccc(NC(=S)/N=C(\N)Nc2nc(C)c3cc(C)ccc3n2)c(C)c1	-6.6%	?	.	?	-19%	16%	15%	?
CCn1c(SCC(=O)c2ccc(C)cc2)nnc1-c1ccncc1	1.4%	6%	0%	0%	-7%	-2%	9%	-22%
COc1ccc(C(=O)Nc2ccc(Cl)cc2C(=O)NCCO)cc1	6.4%	.	-4%	-13%	.	9%	-2%	5%
COCc1nnc(NC(=O)COc2ccc3c(c2)OCO3)s1	.	5%	3%	?	23%	-3%	15%[46.1 µM]	.
N=C1C(c2ccccc2)=C(O)CN1c1ccccc1	.	14%	1%	?	1%	0%	0%	.
CC(=O)Nc1cccc(-c2nnc(SCC(=O)N3CCCCC3)n2C)c1	-3.7%	15%	-2%	-1%	25%	3%	-3%	0%
Cc1ccc(-c2nc(CN(Cc3cnn(C)c3)C(C)C)c(C)o2)o1	.	1%	-21%	-6%[46.1 µM]	-3%	5%	-8%[46.1 µM]	.
O=C(CCC1N=C2c3ccccc3N=C(SCc3ccc(F)cc3)N2C1=O)NCc1ccc(F)cc1 (configuration not stated)	-2.8%	.	.	.	-33%	.	-3%[46.1 µM]	12%
CCc1cc(=O)oc2cc(C)cc(OCC(=O)NCCCN3CCOCC3)c12	.	-10%	6%	.	1%	0%	.	.
COc1ccc(-c2nn(-c3ccccc3)cc2CN2CCCO2)c(F)c1	.	-2%	-3%	-6%[46.1 µM]	-9%	-3%	1%[46.1 µM]	.
COc1ccc(-c2noc(CCN3C(=O)c4ccccc4C3=O)n2)cc1OC	-2.3%	-7%	0%	-6%	-8%	-26%	2%	-7%
Cc1ccc(S(=O)(=O)N2CCC(C(=O)N[C@@H](C)C(=O)NCC3CCCO3)CC2)cc1 (some centres not stated)	1.9%	1%	-12%	-2%	17%	-7%	6%	-4%
CC(=O)Nc1ccc(OCC(=O)c2cc(C)ccc2C)cc1	-0.9%	3%	-1%	2%	4%	-19%	?	-2%
Cc1ccc(C(=O)CNc2ccccc2)cc1	.	-4%	-10%	0%[46.1 µM]	22%	-47%	2%	.
CCCN(CCC)CCCNC(=O)Cn1ncc2c3ccccc3n(Cc3ccccc3)c2c1=O	-2.1%	.	.	?	-18%	.	-21%[46.1 µM]	-2%
N#Cc1ccccc1NC(=O)CSC1=Nc2ccccc2C2CC=NN12 (configuration not stated)	.	-2%	18%	1%[46.1 µM]	?	-7%	-1%	.
CCN(CC)c1ccc(N=Cc2c(O)n(-c3cc(OC)ccc3OC)c(=O)[nH]c2=O)cc1	-2.1%	-1%	-10%	-2%&-2%&-2%	-6%	1%	-18%	-13%
CCN(CC)C(=O)Cn1cc(SCC(=O)Nc2cccc(C)c2)c2ccccc21	-0.3%	.	.	.	-28%	.	?	19%
Cc1ccc2c(=O)c(C(=O)c3ccc(F)cc3)cn(CC(=O)NCc3ccco3)c2n1	.	4%	-5%	16%[46.1 µM]	-8%	2%	-19%[46.1 µM]	.
Cc1ccc2c(c1)c(=O)c1c3n2CCN(CC2CO2)C3CC1 (configuration not stated)	.	1%	-11%	-23%[46.1 µM]	23%	7%	7%[46.1 µM]	.
Cc1cccc2c1-c1sc(C(=O)NCCCN3CCN(c4cccc(Cl)c4)CC3)cc1CO2	-1.8%	.	.	?	-32%	.	?	25%
Cc1cc(OCC(=O)N(Cc2ccco2)C2CCS(=O)(=O)C2)ccc1Cl (configuration not stated)	.	-1%	-2%	-2%[46.1 µM]	-24%	2%	20%[46.1 µM]	.
COc1ccc(CNC(=O)C(C)OC(=O)C23CC4CC(CC(O)(C4)C2)C3)cc1 (configuration not stated)	-3.6%	1%	5%	22%	-13%	1%	-5%	-8%
Cc1nn(C)cc1NC(=O)c1cc2nc(-c3ccco3)cc(C(F)(F)F)n2n1	.	1%	-23%	8%[46.1 µM]	-1%	-1%	.	.
COc1cc(SC)ccc1C(=O)Nc1c(C)cccc1C	.	-2%	18%	?	11%	-10%	14%	.
CCCNC(=S)Nc1ccc(Cl)cc1Cl	-2.2%	?	-10%	?	35%[activator]	4%	7%	5%
Cc1ccc(-c2cc(NC(=O)c3ccccc3)on2)cc1	.	-2%	-1%	21%[46.1 µM]	0%	-7%	-1%[46.1 µM]	.
COc1ccc(N2CC(NC(=O)COc3ccc(F)cc3)CC2=O)cc1OC (configuration not stated)	-0.4%	.	.	.	-16%	.	0%[46.1 µM]	-10%
COc1ccccc1CN1CCNC(=O)C1CC(=O)NCCC1=CCCCC1 (configuration not stated)	.	1%	6%	.	-5%	-4%	.	.
Cc1cccc(N2CCN(S(=O)(=O)c3ccc4c(c3)NC(=O)CS4)CC2)c1C	.	?	2%	.	?	2%	.	.
CCc1ccccc1N1CC23C=CC(O2)C(C(=O)OC)C3C1=O (configuration not stated)	4.5%	9%	-3%	.	-1%	0%	.	3%
CCCOc1ccc(-c2nonc2NC(=O)c2cc(OC)c(OC)c(OC)c2)cc1OCCC	-5.9%	.	.	-19%[46.1 µM]	14%	.	-20%[46.1 µM]	?
CCOC(=O)Cc1csc(NS(=O)(=O)c2ccc(Br)cc2)n1	.	.	0%	-25%[46.1 µM]	1%	-2%	5%[46.1 µM]	.
CC(=O)N1CCc2cc(CNC(=O)Nc3ccccc3C(F)(F)F)ccc21	-0.1%	.	.	.	51%[activator]	.	20%[46.1 µM]	21%
CC1(C)OC(=O)C(=NNc2ccccc2[N+](=O)[O-])C(=O)O1	.	-1%	35µM*	.	3%	-31%	.	.
CCCCC(=O)OCc1cc(=O)n2nc(C3CCCCC3)sc2n1	0.1%	.	.	.	10%	.	27%[46.1 µM]	5%
Cc1ccc(Cc2nnc(SCC(=O)Nc3ccc(C)cc3C)[nH]c2=O)cc1	.	11%	5%	6%	-10%	.	?	.
CCC(=O)Nc1cccc(NC(=O)c2ccc3c(c2)OCCO3)c1	5.9%	-1%	5%	7%	.	2%	12%	9%
O=C(NCc1cccs1)c1cc2c(s1)CS(=O)(=O)C2	2.8%	2%	14%	-3%	9%	5%	-6%	5%
O=C(c1ccc(Cl)c(S(=O)(=O)N2CCc3ccccc3C2)c1)N1CCN(c2ccccc2)CC1	-2.2%	-2%	-16%	?	?	28%	-25%	?
Cc1cc(C)nc(SC2c3cccc4cccc(c34)C2NS(=O)(=O)c2ccccc2)n1 (configuration not stated)	-2.7%	-22%	3%	?	-6%	-2%	-10%	-26%
COc1ccccc1-c1cc(C(F)(F)F)nc(S(=O)(=O)CCCC(=O)Nc2cc(OC)c(OC)c(OC)c2)n1	2.0%	.	.	?	19%	.	?	17%
CCN(c1ccccc1)S(=O)(=O)c1ccc(Cl)c(NC(=O)COC(=O)c2ccc[nH]c2=O)c1	.	-1%	0%	2%[46.1 µM]	-15%	0%	-9%	.
CCOc1cc(S(=O)(=O)N(CC)CC)ccc1Cl	.	-1%	-23%	1%[46.1 µM]	3%	.	-10%[46.1 µM]	.
CCc1cccc(NC(=O)C2CCCN2S(=O)(=O)c2ccc3nc(-c4ccccc4)[nH]c3c2)c1 (configuration not stated)	-4.5%	.	.	.	-24%	.	-24%[46.1 µM]	3%
O=C(CNS(=O)(=O)c1ccc(Br)cc1Cl)OCC(=O)c1ccc[nH]1	.	-1%	17%	0%	-10%	.	0%	.
COCCNC(=O)Cn1nc(C(F)(F)F)cc1C	7.8%	7%	2%	7%	.	?	-1%	-4%
Cc1cccc(N(CC(=O)N2CCCC2)S(=O)(=O)c2ccccc2)c1C	1.0%	.	0%	-6%	.	-2%	17%	8%
Cc1nnc(SCC(=O)Nc2ccc(Cl)cn2)n1Cc1ccccc1	5.5%	9%	-7%	1%	-24%	-25%	-1%	-27%
CCc1cc2c(C)ccc(C)c2nc1SCC(=O)Nc1cc(C)on1	.	1%	53%	?	-3%	8%	?	.
CCn1c(SCC(=O)c2ccc(CNC(C)=O)o2)nnc1-c1cccs1	-1.4%	-2%	-8%	-12%	-13%	5%	-4%	7%
C=CCc1cc(/C=N/NC(=O)CSc2nnc(CCCc3ccc(OC)cc3)o2)cc(OC)c1O	2.4%	11%	-9%	6%	-15%	0%	?	2%
CCCC(=O)NC(Nc1ccc(S(=O)(=O)Nc2cc(C)on2)cc1)(C(F)(F)F)C(F)(F)F	.	.	41%	-3%	6%	.	?	.
Cc1ccc(-n2c(CNc3ccc(F)cc3)nnc2SCC(N)=O)cc1	-1.8%	6%	0%	?	?	-2%	-9%	7%
Cc1ccc(NC(=O)Cc2ccc(NC(=O)N3CCCCc4ccccc43)cc2)cc1Cl	-3.7%	.	.	.	-16%	.	?	2%
Cc1ccccc1NS(=O)(=O)c1ccc(OCCNS(C)(=O)=O)cc1	0.4%	-2%	-2%	6%	-4%	-1%	-12%	-8%
